Vaccinia inh: blocks a specific stage of Vaccinia orthopoxvirus infection. hit rate 0.01% among 89,000. AID 1053133. Vaccinia-infected cells, mCherry/Venus stage reporter fluorescence; active compounds read low; some inactives read as strong as hits. activity change (mCherry), % (no concentration beside the values);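 active = mCherry past -33% and 40 or more points under the early reporter, replicates agreeing; inconclusive = past -33% without that gap or agreement; tested in A549 cells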;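 also: scaled between vehicle wells and reference inhibitor wells; 23 nL library stock went into each well; one replicate is shown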
Vaccinia inh Venus: second read-out of Vaccinia inh, no call of its own (marks repeat the call); activity change (Venus), %; measured here: Venus reporter, other viral stage;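 negative = less Venus signal; first of two replicates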
The depositor's hits bear a star; ? = inconclusive; . = not tested or not shown; & = joins results of further samples. These rows are one share of the data; rates above refer to the full screens.

SMILES	Vaccinia inh	Vaccinia inh Venus
C[C@H]1CCCCO[C@H](CN(C)C(=O)Nc2cccc3ccccc23)[C@@H](C)CN([C@@H](C)CO)C(=O)c2cc(NC(=O)Cc3ccccc3)ccc2O1	13	1
Cc1noc(C)c1S(=O)(=O)N(C)C[C@@H]1Oc2ccc(NS(=O)(=O)c3cn(C)cn3)cc2CC(=O)N([C@@H](C)CO)C[C@@H]1C	-4	12
O=C(C[C@@H]1CC[C@@H]2[C@H](COC[C@H](O)CN2C(=O)c2ccc(F)cc2)O1)NCc1cccc(F)c1	12	18
CC(=O)N[C@@H]1C=C[C@H](CC(=O)NCC2CCCCC2)O[C@@H]1CO	1	-4
CCCNC(=O)N1CC2(CN(S(=O)(=O)c3ccc(OC)cc3)C2)c2c(n(C)c3cc(OC)ccc23)[C@H]1CO	-21	-16
CO[C@@H]1CN(C)C(=O)c2cc(NC(=O)c3cnccn3)ccc2OC[C@H](C)N(CC2CC2)C[C@H]1C	7	4
COc1ccc(-c2ccc3c(c2)O[C@@H](CN(C)Cc2cccnc2)[C@H](C)CN([C@@H](C)CO)S3(=O)=O)cc1	?	.
N#C[C@H]1[C@@H](c2ccc(C#Cc3cccc(F)c3)cc2)[C@H](CO)N1C(=O)C1CC1	?	.
N#C[C@H]1[C@@H](c2ccccc2-c2ccc(F)cc2)[C@H](CO)N1C(=O)Cc1ccccc1	1	3
O=C(Nc1cc(F)ccc1F)N[C@H]1CC[C@@H](CCn2cc(C3CC3)nn2)O[C@H]1CO	-5	1
COc1ccc(CN(C)C[C@H]2Oc3ccc(NC(=O)C4CCCCC4)cc3CC(=O)N([C@@H](C)CO)C[C@@H]2C)cc1	-7	-3
C[C@H]1CCCCO[C@H](CN(C)C(=O)Nc2ccc3c(c2)OCO3)[C@@H](C)CN([C@@H](C)CO)C(=O)c2cc(NS(=O)(=O)c3ccccc3)ccc2O1	-9	-6
CO[C@@H]1CN(C)C(=O)c2ccc(NC(=O)c3cccc(F)c3)cc2OC[C@H](C)N(C)C[C@H]1C	-1	-7
CCCNC(=O)N1CC2(CCN(Cc3ccccn3)CC2)c2c(n(C)c3cc(OC)ccc23)[C@H]1CO	1	-4
C/C=C/c1ccc2c(c1)O[C@@H](CN(C)C(=O)C1CCOCC1)[C@H](C)CN([C@H](C)CO)S2(=O)=O	28	24
CO[C@@H]1CN(C)C(=O)c2ccc(NS(C)(=O)=O)cc2OC[C@@H](C)N(CCC(F)(F)F)C[C@@H]1C	12	4
CCC(=O)N1CCCCN2[C@H](CO)[C@@H](c3ccc(/C=C/c4ccccc4)cc3)[C@H]2C1	?	.
COc1cccc(S(=O)(=O)N[C@@H]2C=C[C@@H](CC(=O)NCc3ccc(F)cc3)O[C@@H]2CO)c1	-4	0
C[C@@H]1CN([C@H](C)CO)C(=O)c2cc(NC(=O)CCN3CCOCC3)ccc2O[C@@H]1CN(C)Cc1ccc(C(=O)Nc2ccccc2N)cc1	22	9
CN(C)C(=O)c1ccc(-c2ccc3c(c2)[C@H]2[C@H](CCN2C(=O)C2CCOCC2)[C@H](CO)N3C)cc1	-2	0
COc1ccc(COCC23N=C4SCc5ccccc5CN4[C@H](c4ccccc4O2)[C@H]3CO)cc1	-13	-9
C[C@@H]1CCCCO[C@H](CN(C)C(=O)Nc2ccc(F)cc2)[C@H](C)CN([C@@H](C)CO)C(=O)c2cc(NS(C)(=O)=O)ccc2O1	14	5
N#C[C@@H]1[C@@H](c2ccc(C3=CCCCC3)cc2)[C@H](CO)N1C(=O)Cc1ccncc1	-21	-8
COc1ccc(NC(=O)Nc2ccc3c(c2)C(=O)N([C@@H](C)CO)C[C@H](C)[C@@H](CN(C)Cc2ccc(C(F)(F)F)cc2)O3)cc1	-2	1
C[C@H]1CN([C@@H](C)CO)C(=O)c2ccccc2-c2ccccc2CO[C@H]1CN(C)Cc1ccc(Oc2ccccc2)cc1	-33	-32
O=C(c1ccncc1)N1CC(=O)N2[C@H](C1)[C@H](c1ccc(-c3cccnc3)cc1)[C@@H]2CO	24	12
COc1ccc(C#Cc2ccc([C@H]3[C@H](CO)N4CCCCN(C(=O)Nc5cccc(F)c5)C[C@@H]34)cc2)cc1	?	.
C[C@@H]1CCCCO[C@@H](CN(C)C(=O)c2ccccc2)[C@H](C)CN([C@H](C)CO)C(=O)c2cc(NC(=O)c3ccccc3)ccc2O1	?	.
C[C@H](CO)N1C[C@H](C)[C@@H](CN(C)CC2CCCCC2)Oc2ccc(NS(=O)(=O)c3ccc(F)cc3)cc2C1=O	6	17
C[C@H](CO)N1C[C@H](C)[C@H](CN(C)S(=O)(=O)c2ccccc2)Oc2ccc(NC(=O)CCCCCC(=O)Nc3ccccc3N)cc2CC1=O	10	4
COC(=O)C[C@H]1CC[C@@H]2[C@@H](COc3ccc(NS(=O)(=O)c4ccccc4Cl)cc3C(=O)N2C)O1	8	10
COc1ccccc1C#Cc1ccc([C@H]2[C@@H](CO)N3CCCCN(CCC(F)(F)F)C[C@@H]23)cc1	?	.
COC(=O)C[C@H]1CC[C@H]2[C@@H](COc3ccc(NC(=O)Nc4c(C)noc4C)cc3C(=O)N2C)O1	33	16
Cc1ccc(S(=O)(=O)N(C)C[C@@H]2OCc3cn(nn3)CCCC(=O)N([C@H](C)CO)C[C@@H]2C)cc1	-13	-13
CN(C)CC#Cc1ccc([C@H]2[C@@H](CO)N3C(=O)CN(C(=O)c4ccc(F)cc4)C[C@@H]23)cc1	8	-9
CC(C)(C)[S@@](=O)N1Cc2cc(C(=O)NCc3ccc4c(c3)OCO4)nc(-c3cccc(-c4cccnc4)c3)c2[C@H]1CCO	-19	-8
O=C(C[C@H]1C[C@@H]2c3cc(NC(=O)Nc4ccccc4)ccc3O[C@@H]2[C@@H](CO)O1)NCc1ccccc1	26	16
C[C@H]1CN([C@@H](C)CO)S(=O)(=O)c2ccc(C#CC3CC3)cc2O[C@H]1CN(C)C(=O)c1cccnc1	5&13	0&-4
COc1ccc(NC(=O)Nc2ccc3c(c2)C(=O)N([C@@H](C)CO)C[C@@H](C)[C@H](CN(C)C(=O)Nc2ccc(C(F)(F)F)cc2)OCCCC[C@H](C)O3)cc1	-5	-4
COCC(=O)Nc1ccc2c(c1)C(=O)N(C)C[C@H](OC)[C@H](C)CN(C(=O)COC)[C@@H](C)CO2	-1	-3
C[C@@H](NC(=O)[C@H]1N[C@H]2c3ccc(-c4ccncc4)c(=O)n3C[C@H]2[C@@H]1CO)c1ccccc1	-2	18
COCC(=O)N(C)C[C@H]1Oc2cc(C#Cc3ccccc3)ccc2S(=O)(=O)N([C@H](C)CO)C[C@@H]1C	-13	-20
C[C@H](CO)N1C[C@H](C)[C@@H](CN(C)Cc2ccccc2)Oc2c(NC(=O)C3CC3)cccc2C1=O	17	12
COCC#Cc1ccc([C@H]2[C@@H](CO)N3CCCCN(S(=O)(=O)c4cccc(OC)c4)C[C@@H]23)cc1	-32	-19
C[C@H](CO)N1C[C@H](C)[C@H](CN(C)C(=O)Nc2cccc(F)c2)OCc2cnnn2CCCC1=O	16	10
CO[C@@H]1CN(C)C(=O)c2ccc(NC(=O)c3ccccc3F)cc2OC[C@@H](C)N(CC2CC2)C[C@H]1C	-8	-5
COc1ccccc1-c1ccc2n(c1=O)C[C@H]1[C@H](CO)[C@@H](C(=O)N(C)C)[C@@H]2N1C(=O)c1cccnc1	7	6
Cc1noc(C)c1S(=O)(=O)N(C)C[C@H]1OCCCC[C@@H](C)Oc2ccc(NC(=O)Nc3cccc4ccccc34)cc2C(=O)N([C@H](C)CO)C[C@@H]1C	6	1

Compounds from the list above that contain a CF3 group, in the order listed:
SMILES	Vaccinia inh	Vaccinia inh Venus
CO[C@@H]1CN(C)C(=O)c2ccc(NS(C)(=O)=O)cc2OC[C@@H](C)N(CCC(F)(F)F)C[C@@H]1C	12	4
COc1ccc(NC(=O)Nc2ccc3c(c2)C(=O)N([C@@H](C)CO)C[C@H](C)[C@@H](CN(C)Cc2ccc(C(F)(F)F)cc2)O3)cc1	-2	1
COc1ccccc1C#Cc1ccc([C@H]2[C@@H](CO)N3CCCCN(CCC(F)(F)F)C[C@@H]23)cc1	?	.
COc1ccc(NC(=O)Nc2ccc3c(c2)C(=O)N([C@@H](C)CO)C[C@@H](C)[C@H](CN(C)C(=O)Nc2ccc(C(F)(F)F)cc2)OCCCC[C@H](C)O3)cc1	-5	-4

Of the compounds above, these have a cyano group.
SMILES	Vaccinia inh	Vaccinia inh Venus
N#C[C@H]1[C@@H](c2ccc(C#Cc3cccc(F)c3)cc2)[C@H](CO)N1C(=O)C1CC1	?	.
N#C[C@H]1[C@@H](c2ccccc2-c2ccc(F)cc2)[C@H](CO)N1C(=O)Cc1ccccc1	1	3
N#C[C@@H]1[C@@H](c2ccc(C3=CCCCC3)cc2)[C@H](CO)N1C(=O)Cc1ccncc1	-21	-8

(listing goes on)
SMILES	Vaccinia inh	Vaccinia inh Venus
C[C@H]1CN([C@@H](C)CO)C(=O)Cc2cc(NS(C)(=O)=O)ccc2O[C@@H]1CN(C)S(=O)(=O)c1ccccc1	30	19
C[C@@H]1CCCCO[C@H](CN(C)C(=O)Nc2ccc3c(c2)OCO3)[C@H](C)CN([C@H](C)CO)C(=O)c2cc(NS(=O)(=O)c3cccs3)ccc2O1	-19	-22
C[C@@H]1CN([C@H](C)CO)C(=O)CCCn2cc(nn2)CO[C@@H]1CN(C)C(=O)CCCN(C)C	21	17
CN(C)CCCNC(=O)C[C@H]1CC[C@H]2[C@@H](COc3ccc(NC(=O)C4CCC4)cc3C(=O)N2C)O1	4	3
O=C(NC1Cc2ccccc2C1)[C@@H]1[C@@H](CO)[C@@H]2Cn3c(ccc(C4=CCCC4)c3=O)[C@H]1N2	1	8
CCNC(=O)[C@H]1[C@H](CO)[C@H]2Cn3c(ccc(-c4ccc(F)cc4)c3=O)[C@@H]1N2Cc1ccccc1F	0	-3
O=C(C[C@@H]1CC[C@H]2[C@@H](COC[C@H](O)CN2S(=O)(=O)c2ccc(F)cc2)O1)N[C@@H]1CCN(Cc2ccccc2)C1	-11	2
C[C@H]1CN([C@@H](C)CO)C(=O)c2cc(-c3ccc(C(=O)N(C)C)cc3)cnc2O[C@@H]1CN(C)C	26	3
O=C(C1CCCCC1)N1CC(=O)N2[C@H](CO)[C@H](c3ccc(Br)cc3)[C@H]2C1	1	-6
CC(C)NC(=O)N1[C@@H]2Cn3c(ccc(-c4cccc(C(=O)N(C)C)c4)c3=O)[C@H]1[C@@H](C(=O)O)[C@@H]2CO	6	1
O=C(Nc1cccc(F)c1)N1CC(=O)N2[C@H](CO)[C@H](c3ccc(-c4ccccc4)cc3)[C@H]2C1	8	9
COCCNC(=O)C[C@@H]1CC[C@H](NC(=O)NC2CCCC2)[C@H](CO)O1	-13	8

3 structures from above, arranged by heavy-atom count, low to high:
SMILES	Vaccinia inh	Vaccinia inh Venus
COC(=O)C[C@H]1CC[C@H]2[C@@H](COc3ccc(NC(=O)Nc4c(C)noc4C)cc3C(=O)N2C)O1	33	16
CN(C)C(=O)c1ccc(-c2ccc3c(c2)[C@H]2[C@H](CCN2C(=O)C2CCOCC2)[C@H](CO)N3C)cc1	-2	0
COc1ccc(NC(=O)Nc2ccc3c(c2)C(=O)N([C@@H](C)CO)C[C@H](C)[C@@H](CN(C)Cc2ccc(C(F)(F)F)cc2)O3)cc1	-2	1

(cont.)
SMILES	Vaccinia inh	Vaccinia inh Venus
COc1ccc2c3c([nH]c2c1)[C@@H](CO)N(C(=O)c1ccccc1)CC31CCN(C(=O)CC2CC2)CC1	13	10
CCC(=O)N[C@H]1C=C[C@@H](CC(=O)NCc2ccccc2OC)O[C@@H]1CO	-3	-1
Cc1noc(C)c1NC(=O)N(C)C[C@H]1OCCCC[C@@H](C)Oc2ccc(NC(=O)c3ccncc3)cc2C(=O)N([C@H](C)CO)C[C@H]1C	28	14
C[C@@H]1CN([C@H](C)CO)C(=O)c2cc(NC(=O)CCCN(C)C)ccc2O[C@H]1CN(C)Cc1ccccc1	7	10
CCCC#Cc1ccc([C@H]2[C@H]3CN(C(=O)c4cccnc4)CC(=O)N3[C@H]2CO)cc1	-24	-7
C[C@@H]1CN([C@H](C)CO)C(=O)c2cc(NC(=O)Nc3ccc(C(F)(F)F)cc3)ccc2O[C@@H]1CN(C)S(=O)(=O)c1cn(C)cn1	-7	-6
C[C@H]1CN([C@@H](C)CO)C(=O)c2cccc(NC(=O)c3nc4ccccc4s3)c2O[C@@H]1CN(C)C(=O)Nc1cccc2ccccc12	-1	7
C[C@@H]1CN([C@H](C)CO)C(=O)c2cc(NC(=O)Nc3cccc4ccccc34)ccc2O[C@H]1CN(C)C(=O)Nc1cccc2ccccc12	13	9
COCC(=O)N(C)C[C@H]1Oc2cc(C#Cc3cccnc3)ccc2S(=O)(=O)N([C@@H](C)CO)C[C@H]1C	7	0
CC(C)CN(C[C@@H]1N[C@@H](CO)[C@@H]1c1ccccc1)C(=O)CN(C)C	14	9
C[C@@H]1CCCCO[C@@H](CN(C)S(=O)(=O)c2ccc(F)cc2)[C@@H](C)CN([C@@H](C)CO)C(=O)c2cc(NC(=O)NC3CCCCC3)ccc2O1	11	6
OC[C@H]1[C@@H](c2ccc(-c3ccc(F)cc3)cc2)[C@@H]2CN(CCC(F)(F)F)CCCCN12	?	.
COc1ccc(NC(=O)Nc2ccc3c(c2)C(=O)N([C@@H](C)CO)C[C@@H](C)[C@H](CN(C)C(=O)NC(C)C)OCCCC[C@@H](C)O3)cc1	-2	-10
C[C@@H]1CCCCO[C@H](CN(C)C(=O)C2CCCCC2)[C@H](C)CN([C@H](C)CO)C(=O)c2cc(NS(=O)(=O)c3cccs3)ccc2O1	?	.
O=C(C[C@H]1C=C[C@H](NC(=O)C2CCOCC2)[C@@H](CO)O1)Nc1ccccc1	18	9
CS(=O)(=O)Nc1ccc2c(c1)[C@H]1C[C@@H](CC(=O)NCCN3CCCCC3)O[C@H](CO)[C@H]1O2	9	8
C[C@@H]1CN([C@H](C)CO)C(=O)c2cccc(NC(=O)Nc3ccc(F)cc3)c2O[C@@H]1CN(C)S(C)(=O)=O	11	9
O=C(N[C@@H]1CC[C@@H](CCNS(=O)(=O)c2cccc(Cl)c2)O[C@@H]1CO)c1ccccc1	-4	-2
CCC(=O)N1[C@@H]2Cn3c(ccc(-c4ccccc4F)c3=O)[C@H]1[C@@H](C(=O)NC1CCC1)[C@@H]2CO	23	19
